# Screening results deposited in PubChem by several laboratories.
# GALR2 agonist = agonists of human galanin receptor 2 (GALR2) | activation, %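 (tested at 5 µM)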 | hit rate 0.48% among 140,000 | GALR2-expressing cells, agonist activation read-out | O43603;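 active = above mean plus 3 SD of all compounds, about 5% in these data, not always enough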;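 also: 0% = vehicle buffer wells and 100% = reference agonist at full effect; tested in CHO reporter cells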
# Target sequence (O43603 whole entry, looked up): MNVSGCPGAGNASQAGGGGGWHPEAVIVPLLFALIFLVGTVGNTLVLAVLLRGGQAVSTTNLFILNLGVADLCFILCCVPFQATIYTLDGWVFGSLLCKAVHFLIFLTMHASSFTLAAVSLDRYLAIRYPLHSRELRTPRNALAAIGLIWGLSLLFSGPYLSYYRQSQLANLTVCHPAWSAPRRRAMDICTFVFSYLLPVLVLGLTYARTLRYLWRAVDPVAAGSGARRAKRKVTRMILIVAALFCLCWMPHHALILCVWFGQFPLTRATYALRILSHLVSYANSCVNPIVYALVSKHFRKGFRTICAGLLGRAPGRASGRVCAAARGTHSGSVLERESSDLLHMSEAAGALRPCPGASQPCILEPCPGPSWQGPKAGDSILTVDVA
# HSV augment = increases HSV replication in cells; HSV replication augmentation in cells, fold increase; maximum fold increase; hit rate 0.005% among 220,000;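 active = peak rise of 1.5-fold or more in the series; tested in PC3 cells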;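 also: first round at 10 µM; read as green reporter fluorescence; hits show the peak of a series up to 25 µM; 1 = signal of infected wells without compound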
# INS promoter inh = TRM-6 insulin promoter activity inhibition | TRM-6 cells (human fetal islet line), insulin promoter-eGFP reporter, imaging; reporter expression induced with tamoxifen | inhibition, % at 2 µM | hit rate 0.9% among 130,000 | AID 1273;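 active = inhibition above the mean plus 3 SD, with well images judged a real hit on visual review, cut at about 60% in these data, passing the limit was not always enough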
# PKD1 inh = blocks activity of human protein kinase D1. inhibition, %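 (about 10 µM by stock and volumes)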. PKD1 kinase fluorescence polarization assay. Q15139. hit rate 0.056% among 200,000;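 active = inhibition of 50% or more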;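 also: controls were vehicle for no effect and a reference inhibitor for full effect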
# RGS16-Gao HTS = RGS16-Galphao interaction regulator (human); bead-based flow cytometry RGS16-Galphao binding, fluorescence; actives lie on both sides; hit rate 0.38% among 220,000; O15492+P09471; AID 1441; binding response (% of control), % at 10 µM;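 active = below 25% or above 175%, edge rows of some plates excepted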;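 also: Galphao activated by GDP with aluminum fluoride before binding; 100% = wells without compound and 0% = beads without RGS; some results beyond the cut were filed as inactive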
# Target sequence (O15492 whole entry, looked up): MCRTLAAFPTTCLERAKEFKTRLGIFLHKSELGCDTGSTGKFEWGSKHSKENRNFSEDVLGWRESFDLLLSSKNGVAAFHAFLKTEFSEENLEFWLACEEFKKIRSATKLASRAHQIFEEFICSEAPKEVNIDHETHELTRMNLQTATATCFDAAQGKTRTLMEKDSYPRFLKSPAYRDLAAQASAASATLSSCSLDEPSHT
# Target sequence (P09471 whole entry, looked up): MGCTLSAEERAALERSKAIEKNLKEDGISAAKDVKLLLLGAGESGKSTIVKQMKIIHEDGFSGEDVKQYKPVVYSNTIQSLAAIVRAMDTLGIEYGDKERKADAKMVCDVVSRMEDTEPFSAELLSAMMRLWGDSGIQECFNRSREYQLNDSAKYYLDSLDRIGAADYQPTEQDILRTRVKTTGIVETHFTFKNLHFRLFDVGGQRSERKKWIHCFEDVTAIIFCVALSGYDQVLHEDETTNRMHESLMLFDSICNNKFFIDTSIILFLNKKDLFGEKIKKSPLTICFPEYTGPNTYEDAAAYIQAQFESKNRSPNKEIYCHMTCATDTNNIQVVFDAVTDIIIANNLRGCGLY
# INS promoter inh cell count = recorded beside INS promoter inh, whose call it bears; normalized cell count, %; measured here: cell count, toxicity; reference of the scale not given here;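 cells exposed to compound for 48 h; stained nuclei by imaging scaled within each plate; lower means fewer cells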
# HSV augment primary fold = recorded beside HSV augment, whose call it bears; fold increase; compound at 10 µM; measured here: primary screen fold increase 10 uM; tested in PC3 cells;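 GFP signal in the first replicate; 1 = infected wells without compound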
# The depositor's hits bear a star; i = inactive; x = not tested or not shown.
SMILES,GALR2 agonist,HSV augment,HSV augment primary fold,INS promoter inh,INS promoter inh cell count,PKD1 inh,RGS16-Gao HTS
Cc1ccc(-n2nnnc2Sc2ccc(S(=O)(=O)NCCN(C)C)cc2[N+](=O)[O-])cc1,-1.9,i,0.48,-8,115,10,106
CC1CCCCC1N=CC1=C(O)CC(C)(C)CC1=O (stereo not drawn),-2.1,i,1.2,-36,114,0,99
Cc1ccc(C(=O)CC(=O)c2cccc(F)c2)c(O)c1,0.1,i,1,5,52,-8,102
Cc1csc(SCC(=O)NC2CCCCC2)n1,-2.8,i,0.99,50,49,0,115
O=C1CSC(c2ccc(Cl)cc2)N1c1cccnc1 (stereo not drawn),x,i,1.2,x,x,x,98
CN1CCN(C(=S)SCC(=O)Nc2nc(-c3ccccc3)c(-c3ccccc3)o2)CC1,-2.3,i,1,x,x,5,111
CCCCn1c(SCC(=O)NC(=O)NCc2ccco2)nc2cc(S(N)(=O)=O)ccc21,0.8,i,0.95,x,x,-6,94
COc1ccccc1/C=N/NC(=O)c1sc(C)nc1C,x,i,1,x,x,-2,99
Cc1cccc2cc(=O)[nH]c(C)c12,-0.3,i,1,x,x,-8,92
CC1(C)Cc2cccc(OCC(=O)Nc3cccnc3Cl)c2O1,-1.0,i,0.97,3,136,-10,102
Cn1c(=O)n(-c2cccc(Cl)c2)c(=O)c2c3c(sc21)COC(C)(C)C3,-0.4,i,0.93,11,127,-1,107
COc1cccc(C(=O)/C=C/Nc2cc(C)ccc2O)c1,-2.9,i,0.67,-24,57,-16,104
CC1Cc2cc(/C(O)=C3/C(=O)C(=O)N(CC4CCCO4)C3c3ccco3)ccc2O1 (stereo not drawn),2.6,i,0.94,4,89,1,107
CC(=O)N1CCc2cc(S(=O)(=O)NCCC(=O)N3CCN(Cc4ccccc4)CC3)ccc21,-0.2,i,0.84,32,67,-1,108
Cc1cccc(NS(=O)(=O)c2cnc[nH]2)c1,-3.6,i,0.93,-6,131,-5,62
COc1cccc(C(C#N)N2CCCCC2)c1O (stereo not drawn),-0.3,i,0.93,47,94,-6,140
CCOC(=O)c1nnc(-c2ccccc2)o1,1.6,i,0.91,-89,132,-3,106
COc1ccc(OC)c(-c2csc(NC(=O)CSc3ccc([N+](=O)[O-])cc3)n2)c1,-1.2,i,0.93,-13,108,3,99
CN(C)c1ccc(CNn2cnnc2SCC(=O)NC(C)(C)C)cc1,x,i,0.94,x,x,-5,102
CN(C(=O)CS(=O)(=O)Cc1ccccc1Cl)c1ccccc1,x,i,1,0,60,9,99
Cc1ccc(C(=O)N2CCC(Cc3ccccc3)CC2)cc1[N+](=O)[O-],x,i,1.1,-12,111,-5,99
Cc1nnc(SCC(=O)NC2CCS(=O)(=O)C2)n1Cc1ccccc1 (stereo not drawn),x,i,0.89,x,x,1,100
Cc1ccccc1NC(=O)CSc1nc(COc2ccccc2)nc2ccccc12,-0.3,i,0.92,2,96,-4,102
COC(=O)C(NC(C)=O)(Nc1nc2ccc(C)cc2s1)C(F)(F)F (stereo not drawn),-1.3,i,0.98,-8,112,-1,103
CCOc1ccc(S(=O)(=O)N2CCN(c3ccc(OC)cc3)CC2)c2cccnc12,0.1,i,0.88,-64,127,-3,102

# The list goes on.
SMILES,GALR2 agonist,HSV augment,HSV augment primary fold,INS promoter inh,INS promoter inh cell count,PKD1 inh,RGS16-Gao HTS
CCN1C(=O)[C@@H]2[C@H](C1=O)[C@@H]1C[C@H]3C(=O)N(CC)C(=O)[C@H]3[C@@H]3C1=C(C(=O)N1C(=O)OC(=NCC4CC4)[C@]31C)[C@@H]2C,x,i,0.87,x,x,x,103
O=C(NCc1ccco1)Oc1ccccc1,-0.9,i,0.9,57,137,-9,95
COc1cccc(/C=N/Nc2nc(-c3cccnc3)nc3ccccc23)c1,x,i,0.93,x,x,x,97
CCn1c(C)[n+](CCOC(C)=O)c2cc(Cl)c(Cl)cc21,x,i,0.9,x,x,-5,100
Cc1ccccc1NCC(=O)N/N=C\c1ccc([N+](=O)[O-])s1,x,i,0.73,0,96,-8,97
CC(C)(/C=N/NC(=O)CSCc1ccccc1Cl)CCC#N,-1.3,i,0.96,-25,126,-5,104
Cn1nnnc1SCCOc1ccc(C#N)cc1,-1.2,i,0.96,x,x,-11,108
O=C(NCCC1=CCCCC1)c1ccc(F)cc1,0.7,i,1,-9,112,0,109
COc1ccc(C(=O)CSC#N)cc1OC,x,i,1.4,-6,43,3,101
COc1cc(NC(=O)c2cc(C)nc3ccccc23)cc(OC)c1,x,i,0.89,x,x,-1,98
C/C(=N\NC(=O)c1ccccc1)c1ccc2c(c1)OCO2,-2.1,i,0.92,-4,146,3,107
O=C(/C=C/c1ccc(F)cc1)NC(Cc1c[nH]c2ccccc12)C(=O)O (stereo not drawn),x,i,1,x,x,-9,96
CCc1ccccc1-n1c(-c2ccncc2)n[nH]c1=S,-0.9,i,1.3,-47,119,-16,101
c1nnc(NC2=NCCC2)s1,-1.5,i,0.82,50,116,-6,175
Cc1ccc(/C=C/C(O)=C2/C(=O)N(C)C3(C)CC2c2ccccc2O3)cc1 (stereo not drawn),-0.8,i,0.86,x,x,17,71
O=C(NCCN1CCCCC1)c1ccc(=O)oc1,-1.6,i,0.86,31,109,-1,106
CCOc1ccc(Cn2c3ccc(OC)cc3c3nc4ccccc4nc32)cc1,-1.9,i,0.99,-33,119,-1,111
O=C(N1CCOCC1)C12CCC3CC(CC(C3)C1)C2,-1.9,i,1,43,96,18,104
COc1cc(NS(=O)(=O)c2ccc(NC(=O)C3CCCO3)cc2)nc(OC)n1 (stereo not drawn),-1.2,i,1,70,124,-6,96
Cc1ccccc1-n1nnnc1SCC(C)C,x,i,1,x,x,1,99
CCCn1c(=O)c(C(=O)Nc2ccccc2C(=O)OCC)c(O)c2ccccc21,-0.8,i,1.1,32,102,2,115
O=C(Nc1nccs1)c1cc(-c2ccccc2)nc2ccccc12,-1.4,i,0.98,38,93,1,105
O=C(Nc1ccccc1N1CCOCC1)c1cc2c(s1)CCCCC2,x,i,1,29,103,1,52
CCOCC(=O)Nc1ccc2c(c1)OCCO2,-1.3,i,0.83,-62,47,-6,102
CCNC(=O)NC(=O)C(C)SCc1ccccc1C (stereo not drawn),-2.3,i,0.96,-42,121,2,95

# Arranged by SMILES length (falling): 16 of the compounds above
SMILES,GALR2 agonist,HSV augment,HSV augment primary fold,INS promoter inh,INS promoter inh cell count,PKD1 inh,RGS16-Gao HTS
CCN1C(=O)[C@@H]2[C@H](C1=O)[C@@H]1C[C@H]3C(=O)N(CC)C(=O)[C@H]3[C@@H]3C1=C(C(=O)N1C(=O)OC(=NCC4CC4)[C@]31C)[C@@H]2C,x,i,0.87,x,x,x,103
CCCn1c(=O)c(C(=O)Nc2ccccc2C(=O)OCC)c(O)c2ccccc21,-0.8,i,1.1,32,102,2,115
COc1cccc(/C=N/Nc2nc(-c3cccnc3)nc3ccccc23)c1,x,i,0.93,x,x,x,97
CCn1c(C)[n+](CCOC(C)=O)c2cc(Cl)c(Cl)cc21,x,i,0.9,x,x,-5,100
COc1cc(NC(=O)c2cc(C)nc3ccccc23)cc(OC)c1,x,i,0.89,x,x,-1,98
O=C(Nc1nccs1)c1cc(-c2ccccc2)nc2ccccc12,-1.4,i,0.98,38,93,1,105
C/C(=N\NC(=O)c1ccccc1)c1ccc2c(c1)OCO2,-2.1,i,0.92,-4,146,3,107
CC(C)(/C=N/NC(=O)CSCc1ccccc1Cl)CCC#N,-1.3,i,0.96,-25,126,-5,104
CCc1ccccc1-n1c(-c2ccncc2)n[nH]c1=S,-0.9,i,1.3,-47,119,-16,101
CCNC(=O)NC(=O)C(C)SCc1ccccc1C (stereo not drawn),-2.3,i,0.96,-42,121,2,95
O=C(NCCN1CCCCC1)c1ccc(=O)oc1,-1.6,i,0.86,31,109,-1,106
CCOCC(=O)Nc1ccc2c(c1)OCCO2,-1.3,i,0.83,-62,47,-6,102
Cn1nnnc1SCCOc1ccc(C#N)cc1,-1.2,i,0.96,x,x,-11,108
Cc1ccccc1-n1nnnc1SCC(C)C,x,i,1,x,x,1,99
O=C(NCc1ccco1)Oc1ccccc1,-0.9,i,0.9,57,137,-9,95
c1nnc(NC2=NCCC2)s1,-1.5,i,0.82,50,116,-6,175

# (further entries)
SMILES,GALR2 agonist,HSV augment,HSV augment primary fold,INS promoter inh,INS promoter inh cell count,PKD1 inh,RGS16-Gao HTS
COc1cccc(N=c2oc3cc(O)ccc3cc2C(=O)NCC2CCCO2)c1 (stereo not drawn),x,i,1.1,x,x,9,111
CCCN(CCO)Cc1cccc(Cl)c1,-0.6,i,0.89,11,71,2,100
O=c1c2cc(Br)ccc2nc2n1CCCCC2,-0.8,i,0.96,25,146,-4,99
O=C1CCCC2=C1C(c1cccs1)n1nc(SCc3ccccc3)nc1N2 (stereo not drawn),1.1,i,0.86,x,x,4,98
Cc1cc(OCCCN2CCN(Cc3ccccc3)CC2)ccc1[N+](=O)[O-],x,i,1.1,x,x,-7,98
Cc1nnc2sc(SCC(=O)Nc3nccs3)nn2c1=O,-1.7,i,0.94,48,91,-1,179
CC(=O)CSc1ccc(-c2nc3cc(C)c(C)cc3[nH]2)cn1,x,i,0.71,-85,29,2,105
COc1cc(C2CC(=O)Nc3ccccc3S2)cc(OC)c1OC (stereo not drawn),-1.8,i,0.82,x,x,-11,97
Fc1ccc(COc2ccccc2-c2ccnc3ncnn23)cc1,x,i,0.9,x,x,-2,103
O=C(CC(c1ccccc1)c1ccccc1)NCCO,-1.1,i,1,-27,115,-14,102
C/C(CC(=O)Nc1cc(Cl)ccc1Cl)=N\NC(=O)c1ccccc1Br,x,i,1.2,x,x,1,100
O=C(Nc1ccc(-c2noc(COc3ccccc3Cl)n2)cc1)c1ccco1,-1.4,i,0.96,-75,95,-3,67
O=C(CSc1ccc2c(c1)OCCO2)Nc1cccc(S(=O)(=O)N2CCCCC2)c1,0.4,x,x,x,x,-4,81
CC(/C=N/n1c(-c2ccco2)n[nH]c1=S)=C\c1ccco1,0.1,i,1.3,x,x,7,-3.8*
Cc1cccc(C(c2c(C)nn(-c3ccccc3)c2N)c2c(C)nn(-c3ccccc3)c2N)c1,-1.1,i,0.93,13,70,-3,114
Cc1cc(C)nc(NC(C)(C)C(=O)O)n1,x,i,0.94,x,x,-7,102
Cc1nnc(SCC(=O)N2CCOCC2)c2ccccc12,-1.7,i,0.85,-6,152,-14,180
O=C(CC(C(=O)O)c1ccccc1)Nc1cccc2ccccc12 (stereo not drawn),-0.3,i,1.1,x,x,-12,117
Cc1cc(C)cc(SCc2noc(C(=O)NCC3CCCO3)c2C(=O)O)c1 (stereo not drawn),-3.7,i,1.1,-43,155,-12,99
COc1ccc(C2C(C(=O)c3cccs3)=C(O)C(=O)N2c2nnc(C)s2)cc1OC (stereo not drawn),-1.4,i,1.1,9,96,-4,102
COc1cc(NC(=O)Nc2ccc3c(c2)OCO3)cc(OC)c1OC,x,i,1,-64,106,4,94
Cc1ccsc1C(=O)N1CCCC(C(=O)c2cc(F)ccc2F)C1 (stereo not drawn),x,i,0.96,x,x,2,98
COc1ccccc1C(=O)NCCc1nc2ccccc2[nH]1,-3.1,i,0.91,x,x,-7,116
CC(C)c1ccccc1N=C1SCCN1C1CCS(=O)(=O)C1 (stereo not drawn),-1.1,i,0.79,-36,151,-11,96
Nc1nc(SCC(=O)Nc2cccc(S(=O)(=O)N3CCCCCC3)c2)n[nH]1,x,i,0.87,x,x,3,96

# Whole records, quoted from the list.
# Results for `O=C(CC(c1ccccc1)c1ccccc1)NCCO` → GALR2 agonist: -1.1; HSV augment: i; HSV augment primary fold: 1; INS promoter inh: -27; INS promoter inh cell count: 115; PKD1 inh: -14; RGS16-Gao HTS: 102
# Results for `Cc1nnc2sc(SCC(=O)Nc3nccs3)nn2c1=O` → GALR2 agonist: -1.7; HSV augment: i; HSV augment primary fold: 0.94; INS promoter inh: 48; INS promoter inh cell count: 91; PKD1 inh: -1; RGS16-Gao HTS: 179

# Additional entries
SMILES,GALR2 agonist,HSV augment,HSV augment primary fold,INS promoter inh,INS promoter inh cell count,PKD1 inh,RGS16-Gao HTS
O=[N+]([O-])c1cc(S(=O)(=O)Nc2ccccc2)ccc1NCc1ccccc1,-1.3,i,0.96,11,134,-1,102
Cc1c(C(=O)Nc2cnccn2)oc2ccccc12,-0.6,i,1.1,-23,101,3,100
O=C(COC(=O)c1cncc(Br)c1)NCc1ccccc1,x,i,0.88,x,x,-2,99
O=C(O)CCCNc1ccc(S(=O)(=O)N2CCCCC2)cc1,x,i,1.1,x,x,-6,105
Cc1nnc(NCc2ccncc2)c2ccccc12,-0.3,i,0.87,x,x,1,108
C/C(=N/NC(=O)c1ccc(Cl)s1)c1ccc(NC(=O)COc2ccc(Cl)cc2)cc1,-2.4,i,0.81,-32,131,-1,110
Cc1ccc(-c2nn(CC(=O)NCc3ccccn3)c(=O)c3ccccc23)cc1S(=O)(=O)N(C)C,x,i,0.98,45,155,-5,103
C=C(C)CNC(=S)N=Nc1c(O)[nH]c2ccc([N+](=O)[O-])cc12,x,i,0.9,-33,171,-1,85
